rRNA inh HTS = inhibitors of bacterial rRNA selective over humanized ribosomes. GFP signal change (wild-type ribosome), % (test concentration not listed). E. coli WT GFP vs humanized-ribosome RFP mutants, fluorescence, 24 h; active compounds read low; DMSO median 0, no signal -100. 350,000 tested, 1.6% active;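 active = significant combined selectivity score with lowered wild-type GFP, culture density cut under 30%, mutant RFP and density less affected; inactive = any of these conditions unmet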; note: one replicate is shown; some compounds called inactive have numbers as strong as hits
FGF22 binding = shifts melting point of recombinant human FGF22; AID 651658; Q9HCT0; calls only at 9.99 µM; recombinant FGF22 thermal shift, SYPRO orange fluorescence; percent of sucrose octasulfate shift, DMSO zero; 340,000 tested, 1.5% active;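 active = melting point raised past a set limit in the mean and every replicate; inconclusive = no clear call; three in four hits are not shown here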
Target sequence (Q9HCT0 whole entry, looked up): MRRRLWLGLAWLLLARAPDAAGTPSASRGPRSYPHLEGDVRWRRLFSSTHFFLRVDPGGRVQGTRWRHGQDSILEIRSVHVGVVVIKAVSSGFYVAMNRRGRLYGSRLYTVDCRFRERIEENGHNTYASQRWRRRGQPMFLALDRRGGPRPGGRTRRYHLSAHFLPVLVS
T cruzi inh = blocks replication of Trypanosoma cruzi | T. cruzi beta-gal in NIH3T3, luminescence, 90 h | inhibition, % (no concentration beside the values) | 300,000 tested, 1.4% active | AID 1885;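 active = mean inhibition across valid replicates above about 55%, limit read from the data; inconclusive = mean below that limit but half or more replicates reach it; inactive = mean below it, under half of replicates reach it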;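 note: signal also drops with host cell toxicity which is not excluded here; 0% = plate median of DMSO wells and 100% = zero luminescence signal; higher percent means less beta-gal luminescence so fewer parasites; stock transfer was 50 nL into about 50 µL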
Calb FLC = affects C. albicans growth with fluconazole; 300,000 tested, 0.57% active; growth inhibition, % (no concentration beside the values); C. albicans CaCi-2 (fluconazole-resistant clinical isolate) + fluconazole, Alamar Blue growth, 48 h;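 active = most replicates above 75%; inconclusive = exactly half above 75%; inactive = most below 75%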;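 note: all wells also contain fluconazole at 8 µg/ml as a sub-toxic cotreatment; 0% = median of DMSO wells and 100% = median of geldanamycin control wells; wells of about 8 µL received 7.5 nL stock; the first replicate is given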
RanGTP-Imp inh = inhibitors of RanGTP-importin-beta interaction, primary screen, biochemical, FRET, CFP-Ran, YFP-importin-beta, homogeneous. cell-free CFP-Ran/YFP-importin-beta FRET ratio. inhibition, % (test concentration not listed). 300,000 tested, 1.1% active;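 active = most replicates above 15%; inconclusive = exactly half above 15%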;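 note: 0% = DMSO wells and 100% = Ran loaded with GDP instead of GTP; wells of about 40 µL received 100 nL stock; the first replicate is given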
ALR inh = blocks human ALR sulfhydryl oxidase activity | 290,000 tested, 3.8% active | inhibition, % (no concentration beside the values) | purified ALR, DTT oxidation, H2O2 HRP-luminol luminescence | P55789 | AID 485317;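 active = mean and each replicate at 75% or more; inconclusive = only one of the two met; inactive = neither met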;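 note: stock transfer was 7.5 nL into about 7.5 µL; 0% = neutral wells and 100% = wells with inactivated enzyme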
Target sequence (P55789 whole entry, looked up): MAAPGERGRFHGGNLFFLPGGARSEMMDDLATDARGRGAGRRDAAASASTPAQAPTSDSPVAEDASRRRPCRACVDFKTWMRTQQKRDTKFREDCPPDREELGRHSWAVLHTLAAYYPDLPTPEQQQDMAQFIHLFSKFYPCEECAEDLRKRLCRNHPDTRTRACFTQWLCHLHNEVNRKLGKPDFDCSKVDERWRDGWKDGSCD
AF4-AF9 inh = blocks AF4 peptide binding to human AF9. AlphaScreen, biotin-AF4 peptide binding to FLAG-AF9. inhibition, % at 10 µM. P42568. 350,000 tested, 0.47% active;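 active = every replicate reaching a set inhibition limit, whatever the replicate mean, cut at about 25% in these data; inconclusive = mean inhibition reaches that limit but some replicates miss it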;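 note: 0% = plate neutral control median and 100% = total signal loss; the record names both 10 and 1 µM as test concentration; the first replicate is given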
Target sequence (P42568 whole entry, looked up): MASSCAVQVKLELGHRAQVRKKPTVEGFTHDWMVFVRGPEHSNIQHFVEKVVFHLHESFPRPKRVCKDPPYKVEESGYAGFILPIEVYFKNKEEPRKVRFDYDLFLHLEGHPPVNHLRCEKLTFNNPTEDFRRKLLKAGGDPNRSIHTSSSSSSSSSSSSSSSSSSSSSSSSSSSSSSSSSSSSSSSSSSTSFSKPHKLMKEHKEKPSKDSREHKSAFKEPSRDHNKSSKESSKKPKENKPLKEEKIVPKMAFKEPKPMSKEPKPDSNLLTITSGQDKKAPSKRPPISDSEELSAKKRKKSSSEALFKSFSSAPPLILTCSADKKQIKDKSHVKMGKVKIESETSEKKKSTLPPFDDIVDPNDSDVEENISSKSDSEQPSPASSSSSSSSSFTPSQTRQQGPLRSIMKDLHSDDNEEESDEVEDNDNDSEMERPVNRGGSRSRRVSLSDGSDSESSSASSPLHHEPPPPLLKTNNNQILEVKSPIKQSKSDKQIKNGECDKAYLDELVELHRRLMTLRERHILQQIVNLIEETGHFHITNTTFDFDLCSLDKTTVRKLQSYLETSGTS
Beta apoptosis = beta cell apoptosis inhibition; INS-1E cytokine-induced death, ATP luminescence, 48 h; percent of positive-control rescue, neutral wells zero; protection from apoptosis, % (test concentration not listed); 300,000 tested, 0.8% active;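 active = all replicates at 75% or more, or half of them and the mean; inconclusive = half reach 75% but not the mean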;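 note: 0% = cytokine-treated negative control wells and 100% = positive control rescue; higher means more ATP so stronger rescue from cytokine killing; wells of about 40 µL received 100 nL stock; the first replicate is given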
rRNA inh HTS OD600 = also measured in rRNA inh HTS; calls as there; OD600 change, %; measured here: OD600 growth;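 optical density of the mix in the first replicate; 0 = DMSO median and -100 = no signal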
rRNA inh HTS RFP = further read-out of rRNA inh HTS, marked with its call; RFP signal change, %; measured here: RFP humanized mutant strains;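 first replicate; 0 = DMSO median and -100 = no signal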
Numbers without * were called inactive; i = inactive; ? = inconclusive; · = not tested or not shown.

SMILES | rRNA inh HTS | rRNA inh HTS OD600 | rRNA inh HTS RFP | FGF22 binding | T cruzi inh | Calb FLC | RanGTP-Imp inh | ALR inh | AF4-AF9 inh | Beta apoptosis
COC(=O)CN(C#N)c1nc(C)cc(C)n1 | 18 | 5 | 1.4 | i | -29 | 8 | 2.4 | -2 | -49 | -4
O=C(COC(=O)c1cccnc1Nc1cccc(C(F)(F)F)c1)NCc1ccc2c(c1)OCO2 | · | · | · | · | 0 | -9 | 3.8 | · | · | 2
CCOC(=O)N1CCN(CC(=O)Nc2ccc(F)cc2)CC1 | 4 | 2 | -4.4 | i | -4 | 2 | 3.5 | -1 | 1.1 | 2
OC1(C(F)(F)F)CC(O)(C(F)(F)F)n2nc(-c3ccccc3)cc2N1 (centres undefined) | · | · | · | · | 13 | 5 | -2.0 | -19 | · | -2
Cc1cc(C(=O)CN2C(=O)NC3(CCCC3)C2=O)c(C)n1-c1ccc2c(c1)OCO2 | · | · | · | · | 4 | -30 | -5.7 | -6 | · | -4
COc1ccc(-n2c(Cc3cccn3C)nnc2SCC(=O)NCc2ccco2)cc1 | 10 | 14 | 5.6 | i | 0 | 12 | -2.2 | 18 | 1.0 | 1
COc1ccccc1CCNS(=O)(=O)c1cc2c3c(c1)C(C)C(=O)N3CCC2 (centres undefined) | -7 | -12 | -3.7 | i | -17 | -12 | 4.2 | -3 | -1.5 | 10
O=C(CSC(=S)N1CCOCC1)Nc1ncc2c(n1)CC(c1ccco1)CC2=O (centres undefined) | 1 | 9 | 4.9 | i | -17 | 1 | 2.6 | · | -1.4 | -5
CCOC(=O)CCP(=O)(O)C(C)(O)c1ccccc1 (centres undefined) | · | · | · | · | 4 | 12 | -1.4 | -12 | · | -5
CNC(=O)c1nc[nH]c1C(=O)NC | · | · | · | · | 2 | 17 | 0.2 | -7 | · | -6
O=C(CC(=O)NC1CCCCC1)N/N=C/c1cccc2ccccc12 | · | · | · | · | 13 | 10 | -0.1 | -3 | · | 2
O=C(COc1ccc(Cl)cc1)NNC(=O)c1ccccn1 | · | · | · | · | -5 | 11 | -0.1 | -4 | · | 2
Cc1ccccc1NC(=O)Cc1c[nH]c2ccccc12 | 2 | 3 | 0.3 | i | -9 | -2 | -0.2 | -6 | 2.6 | -4
CCCN(CC1CCCO1)C(=O)CCc1nnc(CCc2ccc(OC)cc2)o1 (centres undefined) | 5 | 4 | -0.1 | i | -2 | -3 | 1.6 | -1 | -1.8 | ·
O=C(Cc1c(F)cccc1Cl)Nc1ccncc1 | -8 | -18 | -3.8 | i | 2 | -2 | -0.4 | -1 | 1.1 | 6
CCC(=O)Nc1c(-c2ccccc2Cl)c(=O)c2ccccc2n1C | 8 | 6 | 4.8 | i | 0 | 11 | 7.5 | 10 | -1.2 | -1
Cc1ccc2c(c1)c1c3n2CCN(C(=O)CN2CCN(C)CC2)C3CCC1 (centres undefined) | · | · | · | · | 31 | -5 | ? | 91* | · | -2
CN(C)c1ccc(NC(=O)CCN2CCN(c3ccccn3)CC2)cc1 | 8 | 8 | 0.2 | i | 7 | -16 | 3.9 | 99* | 6.6 | ·
COc1ccc(C)cc1NC(=S)N1CCN(c2ncccn2)CC1 | 3 | 1 | -1.8 | i | · | -6 | -2.2 | · | 0.6 | 2
Oc1ccc(/C=N/Nc2ccc(C(F)(F)F)cn2)c(O)c1 | -14 | -12 | -6.2 | i | 13 | 100* | 4.7 | 22 | 11 | 73
CC(=O)N(CCN1CCOCC1)Cc1cc2cc3c(cc2nc1Cl)OCO3 | 9 | 11 | 6.0 | i | -12 | 4 | 2.5 | 4 | -1.4 | 4
Cc1cccc(CCN(C(=O)c2csnn2)C(C(=O)NC2CCCC2)c2ccco2)c1 (centres undefined) | · | · | · | · | 12 | -2 | 5.0 | 3 | 5.2 | -1
Cc1ccc(CSc2ccc(-c3cccs3)nn2)cc1 | · | · | · | · | 3 | -6 | 1.3 | · | · | -7
COC(=O)C1=C(C)N=C2SC(C)C(=O)N2C1c1ccc(C(=O)OC)cc1 (centres undefined) | · | · | · | · | -2 | 0 | -0.5 | -1 | · | -3
COc1cc(C(=O)NCC(c2ccco2)N2CCc3ccccc3C2)cc(OC)c1OC (centres undefined) | 3 | -5 | 2.3 | · | 0 | 3 | -1.6 | 0 | 0.5 | 5
CN(CC(=O)Nc1ccccc1Br)C(=O)c1cccc([N+](=O)[O-])c1 | -1 | 12 | -1.8 | i | -1 | 1 | 7.6 | -2 | 1.4 | 1
CCOc1ccc(C2Nc3ccccc3C(CC)(CC)O2)cc1 (centres undefined) | 16 | 8 | 3.8 | i | 18 | -1 | 1.5 | · | -1.7 | -5
Cc1[nH]nc(NCCO)c1[N+](=O)[O-] | 3 | 8 | -0.9 | i | -7 | 1 | 5.7 | 21 | -0.9 | -5
CCCc1c(O)nc(SCCN(CC)CC)n(C(=O)c2ccccc2)c1=O | · | · | · | · | -11 | -1 | -0.9 | 98* | · | 4
O=C1CCN(S(=O)(=O)c2cccs2)c2ccc(C(F)(F)F)cc2N1 | 10 | 13 | -2.8 | · | -15 | 27 | -11 | -2 | 1.0 | ·

Record cards (already shown).
Profile of `CN(CC(=O)Nc1ccccc1Br)C(=O)c1cccc([N+](=O)[O-])c1` → rRNA inh HTS = -1; rRNA inh HTS OD600 = 12; rRNA inh HTS RFP = -1.8; FGF22 binding = i; T cruzi inh = -1; Calb FLC = 1; RanGTP-Imp inh = 7.6; ALR inh = -2; AF4-AF9 inh = 1.4; Beta apoptosis = 1
Profile of `Cc1[nH]nc(NCCO)c1[N+](=O)[O-]` → rRNA inh HTS = 3; rRNA inh HTS OD600 = 8; rRNA inh HTS RFP = -0.9; FGF22 binding = i; T cruzi inh = -7; Calb FLC = 1; RanGTP-Imp inh = 5.7; ALR inh = 21; AF4-AF9 inh = -0.9; Beta apoptosis = -5

Going on with the list:
SMILES | rRNA inh HTS | rRNA inh HTS OD600 | rRNA inh HTS RFP | FGF22 binding | T cruzi inh | Calb FLC | RanGTP-Imp inh | ALR inh | AF4-AF9 inh | Beta apoptosis
CCOc1ccc(N=Nc2ccc(O)c3ncccc23)cc1 | 9 | 14 | -0.4 | i | 65* | 83* | -1.1 | -35 | 5.9 | 55
NC(Cc1ccccc1)C(O)(c1ccccc1)c1ccccc1 (centres undefined) | -3 | -18 | -4.3 | i | 1 | -29 | -1.9 | -4 | -0.1 | -1
Cc1cccc(-n2c(N)c(-c3nc4ccccc4n3C)c3nc4ccccc4nc32)c1 | · | · | · | · | 47 | -3 | -7.5 | 6 | · | 3
COc1cc2c(cc1OC)C(C)N(C(=O)C1COc3ccccc3O1)CC2 (centres undefined) | · | · | · | · | 15 | 9 | 6.2 | -6 | · | -10
COC(=O)[C@@H](NC(=O)Nc1cc(Cl)ccc1C)C(C)C | · | · | · | · | -11 | 2 | ? | 3 | · | -5
COc1cc(C(=S)N2CCOCC2)ccc1OC(=O)c1cc([N+](=O)[O-])c(C)c([N+](=O)[O-])c1 | 13 | 13 | -1.3 | i | -3 | -6 | 5.9 | 25 | 4.3 | ·
CC(C)(C)n1nc2c(c1NC(=O)c1cccc(C(F)(F)F)c1)CS(=O)C2 (centres undefined) | · | · | · | · | -2 | -5 | 2.2 | -10 | · | -4
CCOc1ccc(OCCC(=O)OCC(=O)NCCc2ccc(S(N)(=O)=O)cc2)cc1 | 12 | 12 | 0.5 | i | · | · | · | 12 | -1.7 | -4
Cc1ccc(S(=O)(=O)N(CC(=O)N2CCN(c3ccccc3F)CC2)C2CCCCC2)cc1 | · | · | · | · | 11 | 4 | 2.6 | -8 | · | 3
COc1cc(OC)c(C(=O)NCc2ccco2)cc1OC | 2 | 6 | -1.7 | i | -14 | -3 | ? | -8 | -6.5 | ·
O=S(=O)(NCC1CCCO1)c1ccc(-c2ccc(S(=O)(=O)NCC3CCCO3)cc2)cc1 (centres undefined) | -7 | -1 | -10 | i | 41 | 20 | -0.3 | -8 | -2.8 | 96*
O=C(NCCCN1CCCC1=O)c1cc2nc(-c3ccco3)cc(C(F)(F)F)n2n1 | -5 | -19 | -0.7 | i | -3 | 0 | 3.0 | 21 | -7.6 | -2
CSc1nc(C)cc(Oc2ccc(OCCOc3ccccc3)nn2)n1 | · | · | · | · | -17 | 6 | 1.2 | 2 | · | -9
Cc1cc(C)cc(OCC(=O)Nc2nc3ccc([N+](=O)[O-])cc3s2)c1 | · | · | · | · | -18 | -16 | 0.1 | -3 | · | 11
CN1CCCC(OC(=O)/C(C#N)=C/c2ccccc2)C1 (centres undefined) | 18 | 4 | 1.6 | i | 1 | 1 | ? | · | -1.5 | -4
Cc1cc(-c2ccc(Cl)cc2)oc(=O)c1NC(=O)c1ccccc1 | · | · | · | · | 5 | -4 | 0.6 | · | · | 13
O=C(c1ccccc1)N1CCCc2ccccc21 | 4 | 6 | 5.6 | · | 2 | -12 | 1.9 | 3 | · | -5
Cc1ccc(S(=O)(=O)Nc2ccc3c(c2)OCCO3)cc1C | -36 | -53 | -7.4 | · | -1 | -4 | -3.7 | -18 | -1.1 | 23
CCOC(=O)c1c(-c2ccccc2)oc2ccc(O)c(CN3CCCC3)c12 | · | · | · | · | 42 | -13 | 5.1 | 13 | · | ·
CC(C)(Cc1ccc(O)cc1)NC(=O)CC(=O)N=Nc1c(O)[nH]c2ccc(Br)cc12 | -24 | -33 | -7.7 | i | -1 | 10 | 0.7 | 33 | 1.4 | 3
O=C(CCn1c(=O)[nH]c2ccsc2c1=O)NCc1ccc(F)cc1 | 13 | 8 | -3.5 | i | -4 | 1 | 1.5 | -12 | 4.2 | -5
C[C@H]1CC[C@@]2(O[C@H](CCO)C[C@H](O)[C@H]2O)O1 | 10 | 15 | 2.8 | i | -18 | 1 | -7.4 | 0 | 0.0 | -9
N/C(=N/OC(=O)c1ccccc1F)c1nonc1N | -2 | -1 | -3.2 | i | -9 | 11 | 1.0 | 4 | -4.7 | -2
Nc1cc(S(=O)(=O)N2CCOCC2)ccc1N1CCCCC1 | · | · | · | i | · | · | · | 98* | -0.1 | 4

Given with tabs: part of the list above.
structure	rRNA inh HTS	rRNA inh HTS OD600	rRNA inh HTS RFP	FGF22 binding	T cruzi inh	Calb FLC	RanGTP-Imp inh	ALR inh	AF4-AF9 inh	Beta apoptosis
O=C(c1ccccc1)N1CCCc2ccccc21	4	6	5.6	·	2	-12	1.9	3	·	-5
C[C@H]1CC[C@@]2(O[C@H](CCO)C[C@H](O)[C@H]2O)O1	10	15	2.8	i	-18	1	-7.4	0	0.0	-9

Copied from the list.
For Calb FLC, COC(=O)CN(C#N)c1nc(C)cc(C)n1 reads 8
For T cruzi inh, CCCc1c(O)nc(SCCN(CC)CC)n(C(=O)c2ccccc2)c1=O reads -11
For Beta apoptosis, COC(=O)C1=C(C)N=C2SC(C)C(=O)N2C1c1ccc(C(=O)OC)cc1 (centres undefined) reads -3
For ALR inh, CCOc1ccc(OCCC(=O)OCC(=O)NCCc2ccc(S(N)(=O)=O)cc2)cc1 reads 12
For Beta apoptosis, C[C@H]1CC[C@@]2(O[C@H](CCO)C[C@H](O)[C@H]2O)O1 reads -9
For ALR inh, COC(=O)[C@@H](NC(=O)Nc1cc(Cl)ccc1C)C(C)C reads 3

Screening results deposited in PubChem BioAssay by Broad Institute.

An excerpt; count on the stated rates, not on these rows.
